MgrA-DNA mod – alters Staphylococcus aureus MgrA binding to DNA; fluorescence polarization; inhibition, %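 (about 10 µg/mL by stock and volumes)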; hit rate 0.13% among 84,000; AID 602314;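 active means above 50% in either of two replicates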;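 further: 0% = protein plus DNA without compound and 100% = DNA alone without protein; higher means less MgrA bound to DNA so lower polarization; one replicate is shown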
Sa helicase inh – S. aureus DNA helicase inhibition; AID 485395; inhibition, %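 (tested at about 80 µM)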; hit rate 0.05% among 120,000; purified S. aureus helicase, fluorescence unwinding assay; about half of the hits fall short of the stated cut;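 active means both duplicates at 50% or more, or one of them with a favoured structure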;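 further: 0% = mean of negative control wells and 100% = mean of positive control wells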
Starred values were filed as active, the others as inactive; . = not tested or not shown; & = joins results of further samples.

SMILES	MgrA-DNA mod	Sa helicase inh
Cc1[nH]c(=O)c(C#N)c(C)c1CCC(=O)N1CCCSC1=Nc1ccccc1C(C)C	.	-3
CCN(CC)Cc1c(O)ccc2cc(-c3nc4ccccc4s3)c(=O)oc12	22	-96
Cc1ccc(-c2nn(-c3ccccc3)cc2/C=C\C(N)=O)cc1	-2.0	-15
CCOC(=O)c1ccc(N(C)S(=O)(=O)c2ccc(OC)cc2)cc1	-1.1	10
Cc1nnc(NC(=O)C2CC(=O)N(c3ccc(C)c(Cl)c3)C2)s1 (centres undefined)	4.1	-14
COc1ccccc1Nc1cccccc1=O	0.9	0
Cc1ccc(C(=O)Nc2nc3c(s2)C(=O)CC(C)(C)C3)cc1	.	7
CN1/C(=C(\C#N)c2nc(C#N)c(C#N)nc2Cl)Nc2ccccc21	.	14
COC(=O)[C@@H]1[C@H]2C[C@H]3c4[nH]c5ccccc5c4CCN3C[C@@H]2CC[C@@H]1O	0.8&2.6	.
COc1cccc(N=Nc2ccc3cccnc3c2O)c1	.	4
COc1cc(C=C2C(=O)N(C)C(=O)N(C)C2=O)cc(Cl)c1OCCOc1ccccc1	5.1	.
CC(=O)NN1C(=O)c2ccccc2NC1c1ccccc1 (centres undefined)	-0.1	5
COCC(=O)N1CCN(c2ccc(F)cc2)CC1	1.6	7
CCCCS(=O)(=O)Nc1ccccc1OCC	0.3	7
Cc1csc2sc(-c3ccnc(SCc4ccccc4)n3)c(C)c12	3.0	.
O=C(COC(=O)CC12CC3CC(CC(C3)C1)C2)NCc1ccc(F)cc1	-0.6	-3
CN(C(=O)CSc1nnc2ccccn12)c1ccccc1	.	5
CCOC(=O)c1[nH]c(Cc2[nH]c(C(=O)OCC)c(C)c2C)c(C)c1C	2.5	.
N#CC1(C#N)C(C(=O)C23CC4CC(CC(C4)C2)C3)C12CCOCC2 (centres undefined)	-0.8	6
O=C(Cc1ccccc1)OCc1ccc(Cl)cc1	-0.8	12

Next part, starting with the last 4 of the part before.
SMILES	MgrA-DNA mod	Sa helicase inh
CN(C(=O)CSc1nnc2ccccn12)c1ccccc1	.	5
CCOC(=O)c1[nH]c(Cc2[nH]c(C(=O)OCC)c(C)c2C)c(C)c1C	2.5	.
N#CC1(C#N)C(C(=O)C23CC4CC(CC(C4)C2)C3)C12CCOCC2 (centres undefined)	-0.8	6
O=C(Cc1ccccc1)OCc1ccc(Cl)cc1	-0.8	12
Cc1ccc(-c2cc(C(F)F)nc(N(C)Cc3ccccc3)n2)cc1	.	28
O=C(Nc1nccs1)C1Cc2ccccc2CN1S(=O)(=O)c1ccc(F)cc1 (centres undefined)	.	-18
O=c1c(NCCc2ccccc2)nccn1-c1ccccc1	.	9
CCCCC(CC)CN1CC(O)=C(c2nc3ccccc3s2)C1=N (centres undefined)	1.0	-13
Cn1nccc1NC(=S)Nc1ccc(Br)cc1OC(F)(F)F	4.2	.
NC(=O)c1c(NC(=O)CN2CCCC2)sc2c1CCCC2	-0.8	23
COc1ccc(/C=C/C(=O)NCCCN2CCCC2)cc1	.	4
CC(NC(=S)NC1CCCCC1)c1ccncc1 (centres undefined)	-2.5	16
CC1=CC(C)C(C2OCCC(C)O2)C(C)C1 (centres undefined)	0.0	-6
CCCC(=O)Nc1ccc(-c2cn3cccnc3n2)cc1	.	3
CN1C(=O)c2ccc(NC(=O)/C=C/c3ccc(Br)o3)cc2C1=O	.	-10
c1ccc(-c2nnc3sc(CN4CCc5ccccc54)cn23)cc1	.	10
O=C(O)Cc1coc(-c2ccccc2)n1	.	7
O=c1ccc2cc(S(=O)(=O)NC3CCCCC3)ccc2[nH]1	1.0	11
O=C(NCCc1ccsc1)c1cc2c(Cl)nc3ccccc3c2s1	-1.1	10
Cc1ccc2[nH]c(=O)c(N3CCCCC3)c(-c3ccccc3)c2c1	.	-17
CCCCN(CC)C(=O)Cn1nc(Cc2ccncc2)c2ccccc2c1=O	.	-8
CC1(C(=O)N2CCCC2)CCC(=O)N1CCc1ccco1 (centres undefined)	.	8
COC(=O)COc1ccc2c(C)cc(=O)oc2c1	-1.5	9
Cc1ccc(NC(=O)c2csc(-c3cccnc3)n2)cc1	0.8	.

Ordered by molar mass (lowest first): part of the list above.
SMILES	MgrA-DNA mod	Sa helicase inh
COCC(=O)N1CCN(c2ccc(F)cc2)CC1	1.6	7
COc1cccc(N=Nc2ccc3cccnc3c2O)c1	.	4
Cc1[nH]c(=O)c(C#N)c(C)c1CCC(=O)N1CCCSC1=Nc1ccccc1C(C)C	.	-3

Continued:
SMILES	MgrA-DNA mod	Sa helicase inh
CCOC(=O)C1CCN(C(=O)CN2C(=O)c3cccnc3Oc3ccccc32)CC1	.	28
CC(SCc1nc2sc3c(c2c(=O)[nH]1)CCCC3)C(=O)NCc1ccco1 (centres undefined)	.	-5
c1ccc(C2CCN(c3ncnc4c3nc3n4CCCCC3)C2)cc1 (centres undefined)	.	-17
CCOC(=O)c1c(C)csc1N	-0.5	.
O=C(O)C(Cc1ccccc1)P(=O)(c1ccccc1)c1ccccc1 (centres undefined)	-3.2	5
COc1cc(C)cc(CN2CCN(S(=O)(=O)c3ccccc3C#N)CC2)c1O	.	0
COC(=O)/C=C1\SC(=Nc2ccc(C)cc2)NC1=O	.	-32
O=C(CCN1C(=O)c2ccccc2C1=O)N1CCCC1	-1.5	15
Cc1cc(C)n(C(=O)CCCC(=O)O)n1	1.9	3
O=C1OCCC1Sc1nc2ccccc2c(=O)[nH]1 (centres undefined)	.	-2
O=C(NCc1ccc2c(c1)OCO2)C1CC(c2cccc(Br)c2)=NO1 (centres undefined)	.	33
CC(C(=O)N1CCCC1)N(c1ccccc1)S(C)(=O)=O (centres undefined)	-3.3	2
O=C(NC1CCCCNC1=O)c1ccc2nsnc2c1 (centres undefined)	3.8	.
NC(=S)N1CCC(c2ccccc2)=N1	2.2	4
CC(=O)NC1C(=O)Nc2c(C)cc(C)cc21 (centres undefined)	.	1
C=CCNc1nc(Cl)nc(NCC(=O)OCC)n1	-2.6	16
Cn1c(SC(F)F)nnc1-c1ccc2c(c1)OCO2	-1.3	0
CCC(=O)Nc1ccccc1-c1nnn(CC(=O)N2c3ccccc3CC2C)n1 (centres undefined)	-3.4	2
N#Cc1c(NC(=O)COc2ncnc3ccccc23)sc2c1CCC2	.	-7
CC1CCc2c(sc3nc(NN)n(C)c(=O)c23)C1 (centres undefined)	3.2	9

Four compounds picked at random from those above:
SMILES	MgrA-DNA mod	Sa helicase inh
Cn1nccc1NC(=S)Nc1ccc(Br)cc1OC(F)(F)F	4.2	.
Cn1c(SC(F)F)nnc1-c1ccc2c(c1)OCO2	-1.3	0
O=C(COC(=O)CC12CC3CC(CC(C3)C1)C2)NCc1ccc(F)cc1	-0.6	-3
CCC(=O)Nc1ccccc1-c1nnn(CC(=O)N2c3ccccc3CC2C)n1 (centres undefined)	-3.4	2

(continued)
SMILES	MgrA-DNA mod	Sa helicase inh
NS(=O)(=O)c1ccc(CNC(=O)c2cccc3cccnc23)cc1	.	-13
Cc1ccc(C2C3=C(CCCC3=O)N(C)C3=C2C(=O)CCC3)cc1	0.1	3
O=C(CN1C(=O)CSc2ccccc21)OCCCn1c(=O)[nH]c2ccccc21	.	8
Cc1nc2ccccc2n1CO	-0.6	-12
O=C(CCc1nc2ccccc2s1)N1CCN(Cc2ccccc2)CC1	.	0
Cc1nc(N)sc1-c1csc(Nc2ccccc2)n1	4.0	24
CC(=O)n1ccc(-c2ccc(-c3cc(C(F)(F)F)n(C)n3)s2)n1	0.0	.
CC(NC(=O)c1c[nH]c2ccccc12)c1ccccc1 (centres undefined)	-1.1	.
O=C(O)CCc1nc(-c2ccco2)no1	-3.1	3
O=C(Nc1cccc(C(F)(F)F)c1)c1cc2nc(-c3ccco3)cc(C(F)(F)F)n2n1	-1.3	.
Cc1nc(N2CCN(CC(=O)NC3CC3)CC2)c2c(-c3ccccc3)csc2n1	.	13
CN(Cc1ccccc1)C(=O)Cn1cc(S(=O)(=O)N2CCCC2)c(S(=O)(=O)N2CCCC2)c1	.	15
COc1ccc(OC)c(N=C2SCS2)c1	-3.2	.
FC(F)(F)c1ccc2nc(-c3ccc(Cl)c(Cl)c3)cnc2c1	-1.0	.
CCCN1C(=O)C(O)(c2c[nH]c3ccccc23)c2ccccc21 (centres undefined)	-0.1	-2
COC(=O)c1cc(-c2ccc3c(c2)OCO3)no1	-1.9	11
O=C(CSc1ncccc1C(=O)N1CCc2ccccc2C1)Nc1ccc2c(c1)OCO2	.	7
CC/C=C\C/C=C\C/C=C\CCCCCCCC(=O)O	0.8	.
O=C(/C=C/c1cccs1)OCc1csc(-c2ccccc2)n1	.	8
Brc1ccc(-c2nnc(C34CC5CC(CC(C5)C3)C4)o2)cc1	.	-33
CCOc1ccc(C(=O)NCC2CCN(c3nc(C)cc(C)n3)CC2)cc1	-0.4	4
O=Nc1c(O)[nH]c2c(F)cccc12	.	19
Cc1ccccc1NS(=O)(=O)C(F)(F)F	1.8	-16
CCC(=O)Nc1ccc(Cl)c(NC(=O)c2cc3ccccc3o2)c1	-0.3	12
CC(=O)Nc1ccc(SC(F)(F)F)cc1	0.3	11
CCc1ccccc1-n1nnnc1-c1cnccc1C(F)(F)F	-1.6	.
COc1ccc(-c2nc(C)c(CCNS(=O)(=O)N(C)C)s2)cc1	0.0	-4
CCOC(=O)c1sc(NS(=O)(=O)c2ccccc2C(F)(F)F)cc1C	.	9
CCc1nnc2c3ccccc3nc(NCc3cccnc3)n12	.	5
C=CC1CCC(N(Cc2ccccc2)S(=O)(=O)c2ccc(C)cc2)C(O)C1 (centres undefined)	0.0	13
Cc1ccc(NC(=O)C2COc3ccccc3O2)c(C)c1 (centres undefined)	-1.3	.
CCc1ccc(NC(=O)N2CCC(CN3CCc4ccccc4C3)CC2)cc1	.	21
CC(C)NC(=O)Oc1noc2ccccc12	3.5	.
N#CCCN1C(=O)NC(Cc2ccccc2)(c2ccccc2)C1=O (centres undefined)	.	19
O=C1/C(=C/c2ccc(O)cc2)NC(=S)N1c1ccccc1	.	-71
CC(C)Cc1cc(C(=O)NC(C)C)no1	.	7
Cc1cc(C)nc(Nc2ccc(Nc3ccccc3)cc2)n1	-2.4	13
COc1cc(CN2CCN(c3ncccn3)CC2)ccc1O	-1.6	.
Nc1nc(C2CC2)c(Sc2sc(N)nc2C2CC2)s1	.	9
CC(C)CCN1NC2(CCCC(C)C2)NC1=S (centres undefined)	.	10
O=C(CNC(=O)OCc1ccccc1)NC1CCCCCC1	0.5	8
O=C(NCC(F)(F)F)c1ccc(S(=O)(=O)N2CCCc3ccccc32)cc1	.	10
O=C(Nc1cccc(Cl)c1)N1CCN(CCO)CC1	-6.0	13
Cc1ccc(N2Cc3cc(C)c(C)cc3C2)cc1	-0.6	0
CC(C)C(=O)Nc1ccccc1-c1nc2ccccc2[nH]1	.	3
CC(C)(C)OC(=O)Nc1cccc(C(=O)OCC(=O)Nc2ccc(N3CCOCC3)cc2)c1	.	9
O=C(NCC1COc2ccccc2O1)c1cccc(S(=O)(=O)N2CCOCC2)c1 (centres undefined)	.	-5
CCCn1c(SCc2nc(-c3cccs3)no2)nnc1-c1ccncc1	.	-14
O=C1CCC(c2ccccc2)CC1	0.3	-19
Cc1cc(Br)ccc1NC(=S)Nc1cccc(NC(=O)c2ccccc2O)c1	1.1	.
O=C(Cn1[nH]c(=O)c2ccccc2c1=O)N1CCc2ccccc2C1	.	6
CC(CCCC(C)(C)O)CC1OCC(C)O1 (centres undefined)	0.8	.
O=C(O)CCc1nc2cc3ccccc3cc2[nH]1	-7.7	12
FC(F)(F)Oc1ccc(N=Cc2cccs2)cc1	-0.1	16
Cn1c(=O)[nH]c(=O)c2c1nc(CN1CCOCC1)n2CCCc1ccccc1	.	2
O=C(N/N=C/c1ccc(OC(F)F)cc1)c1cc(-c2ccco2)nc2ccccc12	.	-12
CSc1nnc2c(n1)OC(c1c[nH]c3ccccc13)Nc1ccccc1-2 (centres undefined)	-0.9	.
CC(NC(=O)Nc1cccc2ccccc12)C1CCCO1 (centres undefined)	-1.1	-4
CN[C@@H]1[C@H](O[C@H]2[C@H](O[C@@H]3[C@@H](O)[C@H](O)[C@@H](N=C(N)N)[C@H](O)[C@H]3N=C(N)N)O[C@@H](C)[C@]2(O)CO)O[C@@H](CO)[C@H](O)[C@H]1O	-1.4	.
COc1ccc(OCC(=O)NC(=S)N2CCCc3ccccc32)cc1	0.0	13
Other structures.
SMILES	MgrA-DNA mod	Sa helicase inh
CCOC(=O)c1c(N)nn(C(=O)CC)c1-c1ccccc1	-1.2	-6
Cc1cc(C(=O)NNc2c(Cl)cc(Cl)cc2Cl)nn1C	.	18
CC1CN=C(SCc2ccccc2)N1 (centres undefined)	-0.3	.
Cc1ccc2nc(NC(=O)OC(C)(C)C)sc2c1	3.7	11
Cc1ccc(NC2=NC(C(=O)Nc3ccc(F)c(Cl)c3)CC(=O)N2)cc1 (centres undefined)	5.6	5
CN1C(C(=O)NC2CCCCC2)=CC(c2ccc(F)cc2)=NS1(=O)=O	.	-12
Cc1nc2sc(C(c3ccco3)N3CCN(C(=O)c4ccco4)CC3)c(O)n2n1 (centres undefined)	.	-5
CNC(=O)c1nnc(-c2ccccc2)o1	-0.2	10
CN(C)c1ccc(C(=S)N2CCN(C(N)=S)CC2)cc1	.	-5
CCCCN(C)S(=O)(=O)c1cc(-c2nn(C)c(=O)c3ccccc23)ccc1C	.	-11
CCNc1cc(NCC)c2noc3c2c1C(=O)c1ccccc1-3	.	-122
CCC(=O)N(CCN1C(=O)c2ccccc2C1=O)c1cccc(F)c1	.	-1
COC(=O)c1ccc(/C=C2/SC(=S)N(CCC(=O)N(Cc3ccccc3)C(C)(C)C)C2=O)cc1	.	-19
Cc1ccc2c(c1)-c1c(ssc1=S)C(C)(C)N2C(=O)CN1CCOCC1	-1.1	4
O=C(OCCOc1ccc(Br)cc1)c1ccc(Cl)nc1	.	-1

Assay outcomes deposited in PubChem BioAssay by ICCB-Longwood Screening Facility, Harvard Medical School.

The list is partial; count on the stated rates, not on these rows.
